# Source: PubChem (several laboratories)
# HNF4A DNA FP: change in binding of human HNF4 alpha to DNA. P41235. HNF4a-FITC DNA binding, fluorescence polarization, 1 h. activity change, % at 10 µM. hit rate 0.3% among 360,000; in the data active = activity change above about 30%, passing the limit was not always enough;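 also: controls were the assay level and a saturating level of protein; the project sought stronger binding though the title names inhibitors; some compounds called inactive have numbers as strong as hits; positive values seem to mean higher polarization but the record does not say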
# B2AR ag: human beta-2 adrenergic receptor agonism by FAP | P07550 | hit rate 0.43% among 340,000 | AID 504454 | response, % (test concentration not listed) | Am2.2-beta2AR cells, FAP receptor internalization, flow cytometry; reference of the scale not given here;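 active = response above a set limit, near 3 SD of response in nonfluorescent compounds, cut at about 42% in these data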;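 also: stock transfer was 100 nL into about 11 µL; a reference agonist was the positive control; negative values mostly stem from fluorescent compounds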
# Target sequence (P07550 whole entry, looked up): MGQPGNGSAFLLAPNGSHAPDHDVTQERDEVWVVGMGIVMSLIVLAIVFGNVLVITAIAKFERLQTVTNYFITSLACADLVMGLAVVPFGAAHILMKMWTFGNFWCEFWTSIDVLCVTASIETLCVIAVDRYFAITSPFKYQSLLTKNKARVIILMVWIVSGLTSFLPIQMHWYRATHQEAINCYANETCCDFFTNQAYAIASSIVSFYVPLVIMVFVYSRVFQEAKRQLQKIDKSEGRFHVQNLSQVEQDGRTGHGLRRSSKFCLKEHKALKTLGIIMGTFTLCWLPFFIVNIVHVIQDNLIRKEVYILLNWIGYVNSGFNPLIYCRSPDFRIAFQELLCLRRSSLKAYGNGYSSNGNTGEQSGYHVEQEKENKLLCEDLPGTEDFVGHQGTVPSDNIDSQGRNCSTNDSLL
# LANA-H2A inh: blocks KSHV LANA binding to histone H2A/H2B; Q9QR71; inhibition, % (test concentration not listed); cell-free LANA-H2A/H2B peptide, fluorescence polarization; hit rate 0.6% among 320,000; in the data active = inhibition mostly above about 10%, no sharp cut-off; inactive = mostly below about 6.7%;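 also: stock transfer was 7.5 nL into about 10 µL; 0% = median of vehicle wells and 100% = median of positive control wells; one replicate is shown; the record names a cut of 25% in any replicate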
# ALR H2O2 inh: human ALR oxidase inhibition via reduced H2O2; inhibition, % (test concentration not listed); P55789; purified ALR, DTT oxidation, H2O2 HRP-luminol luminescence; hit rate 3.8% among 290,000; AID 485317;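 active = mean and each replicate at 75% or more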;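 also: stock transfer was 7.5 nL into about 7.5 µL; 0% = neutral wells and 100% = wells with inactivated enzyme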
# UCH37 DUB inh: human UCH37 deubiquitinating enzyme inhibition | Q9Y5K5 | purified proteasome/UCH37, Ub-AMC cleavage fluorescence | inhibition, % (no concentration beside the values) | hit rate 0.33% among 330,000 | AID 588478;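 active = mean of two replicates above 20%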;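 also: 0% = compound-free wells with enzyme and 100% = wells lacking proteasome; stock transfer was 100 nL into about 20 µL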
# Target sequence (Q9Y5K5 whole entry, looked up): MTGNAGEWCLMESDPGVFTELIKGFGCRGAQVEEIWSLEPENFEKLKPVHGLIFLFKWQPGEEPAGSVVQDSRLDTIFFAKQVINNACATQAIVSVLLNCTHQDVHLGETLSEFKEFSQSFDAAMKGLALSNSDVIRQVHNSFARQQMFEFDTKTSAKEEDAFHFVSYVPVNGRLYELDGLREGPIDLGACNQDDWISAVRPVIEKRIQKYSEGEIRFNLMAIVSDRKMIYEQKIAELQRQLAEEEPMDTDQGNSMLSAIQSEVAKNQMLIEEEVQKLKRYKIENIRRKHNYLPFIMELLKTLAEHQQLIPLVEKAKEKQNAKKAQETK
#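 Material: Human UCH37 enzyme supplied as purified proteasome complex | Schedule: 30 min preincubation with enzyme, 25 min cleavage at room temperature | Detection: AMC fluorescence 355/460 nm | Measure: % inhibition of Ub-AMC cleavage fluorescence | Controls: Wells without proteasome as full block, compound-free enzyme plus substrate as uninhibited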
# FGF22 binding: binders of recombinant human FGF22 by thermal shift; AID 651658; Q9HCT0; calls only at 9.99 µM; SYPRO orange fluorescence; percent of sucrose octasulfate shift, DMSO zero; hit rate 1.5% among 340,000;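 active = melting point raised past a set limit in the mean and every replicate; three in four hits are not shown here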
# Target sequence (Q9HCT0 whole entry, looked up): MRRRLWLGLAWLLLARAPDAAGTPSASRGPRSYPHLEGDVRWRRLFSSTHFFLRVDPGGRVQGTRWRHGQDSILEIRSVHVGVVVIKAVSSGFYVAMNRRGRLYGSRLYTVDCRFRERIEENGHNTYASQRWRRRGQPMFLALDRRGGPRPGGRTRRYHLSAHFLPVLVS
# E coli growth: inhibitors of Escherichia coli growth | OD600, 23 h; active compounds read low | OD600 absorbance (no concentration beside the values) | AID 1053175 | hit rate 0.21% among 330,000;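 active = OD600 absorbance below the run mean of sample wells minus 3.6 SD, in any replicate, cut at about 0.56 in these data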;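 also: stock transfer was 300 nL into about 60 µL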
# Numbers without * were called inactive; i = inactive; · = no result given.
SMILES,HNF4A DNA FP,B2AR ag,LANA-H2A inh,ALR H2O2 inh,UCH37 DUB inh,FGF22 binding,E coli growth
COc1ccc(CN2CCNC(=O)C2CC(=O)NCC2CCOCC2)cc1C (centres undefined),0.2,1.1,·,·,·,i,·
COC(=O)c1cc(S(=O)(=O)N2CCCC(C)C2)c[nH]1 (centres undefined),-0.5,-0.1,-2.8,-1.4,1.0,i,0.722
Cc1ccc(N2CCN(C(=O)C3CCN(S(=O)(=O)c4cccc5nsnc45)CC3)CC2C)cc1 (centres undefined),-3.0,-0.1,·,·,4.8,i,0.692
c1ccc(NCCSc2nc3ccccc3s2)cc1,3.0,2.0,·,·,·,i,·
O=C(CN1CCN(C(=O)c2cncn2-c2ccc(F)cc2)CC1)Nc1ccccc1C(F)(F)F,-0.6,-6.2,4.1,-1.2,3.0,i,0.635
CN(C)CC(CCCCC(CN(C)C)C(=O)c1ccccc1)C(=O)c1ccccc1 (centres undefined),3.8,12.9,·,·,3.8,i,0.68
CC1(C)Cc2c(c(-c3ccco3)nc3sc4c(NCCCO)ncnc4c23)CO1,7.0,111.1*,0.7,15.2,-122.5,i,0.67
Cc1cccc(NC(=S)NCc2ccc3c(c2)OCO3)c1,5.9,-8.6,1.2,-8.8,4.7,·,0.661
CCn1c(=O)c([N+](=O)[O-])c(Cl)c2ccccc21,3.0,77.0*,0.6,5.5,2.7,·,0.686
Cn1c(CCNS(=O)(=O)c2ccccc2)nnc1SCc1cccnc1,1.5,-2.7,-7.1,-13.3,0.7,i,0.593
CCOc1ccc(/C=C/C(=O)OCC(=O)c2ccccc2OC)cc1OC,0.1,5.0,2.1,1.5,-33.2,·,0.682
COc1ccc(Nc2nc(C)cc(=O)[nH]2)cc1,-1.6,-2.6,-0.7,-5.2,1.1,·,0.681
CC(C(=O)NCCCc1ccccc1)c1ccc([N+](=O)[O-])cc1 (centres undefined),2.2,-0.4,2.7,-14.0,1.7,·,0.713
CC(C)(C)C1CCC(OC(=O)CCC(=O)Nc2ccccc2)CC1 (centres undefined),-2.8,0.2,-3.1,-23.1,2.8,·,0.651
O=C(c1cc2cc(F)ccc2[nH]1)N1CCN(c2cccc(Cl)c2)CC1,-2.2,-1.9,-0.7,-21.8,4.0,i,0.696
O=C(Cn1cnc2c(nnn2Cc2ccc(F)cc2)c1=O)OCc1ccccc1,-2.4,-6.4,0.0,-1.4,1.7,i,0.673
Cc1ccc(NC(=O)c2nc[nH]c2C(=O)NCC(=O)OC(C)(C)C)cc1,-0.9,-4.9,3.5,8.1,-1.3,i,0.666
COC(=O)c1ccccc1S(=O)(=O)N(Cc1cc2cc3c(cc2[nH]c1=O)OCO3)C1CCCCC1,·,·,1.7,-2.2,-21.0,·,0.682
CCc1ccccc1NC(=O)CN(C)C(=O)COC(=O)c1ccco1,3.6,2.8,1.6,·,0.8,i,0.688
CC(C)(C)NC(=O)CSc1nncn1NCc1c(Cl)cccc1Cl,3.2,-6.2,8.7,-12.1,2.0,·,0.687
Cc1cccc(OCC(=O)Nc2ccc(C(=O)c3ccc(C(=O)O)cc3)cc2)c1,2.7,2.5,-1.3,-4.9,34.7*,i,0.703
CCCc1nc2scc(-c3ccc(C)cc3)c2c(=O)n1N,-4.2,3.3,-0.7,-10.8,0.8,·,0.702
Cc1ccc(-n2c(SCC(=O)Nc3ccc(C(=O)O)cc3)nnc2-c2ccncc2)cc1,4.1,-2.5,2.2,-6.8,1.0,i,0.693
Cc1nc2ccccc2cc1C(=O)NCc1ccco1,-2.2,-9.9,-3.5,·,3.3,·,0.682
COCc1nc(-c2ccc(-c3ccc(C)cc3)nc2OC)no1,-14.2,5.8,0.5,7.8,-21.9,·,0.702
CCC(=O)c1c[nH]c(C(=O)NCc2ccccc2OC)c1,5.9,-1.8,-2.4,0.8,4.6,i,0.643
Cc1ccc(NC(=O)Cc2ccccc2)cc1S(=O)(=O)N1CCOCC1,4.8,6.3,1.2,-6.4,3.1,i,0.706
O=c1c2c(nc3nc(NCc4cccc5ccccc45)[nH]n13)CCC2,1.4,3.6,-0.7,14.7,7.3,i,0.662
Nc1cccc(O)c1,2.0,4.6,-0.9,13.9,4.6,i,0.668
C=CCSc1nnc(Cc2cc(=O)[nH]c(=O)[nH]2)n1-c1cc(C)ccc1C,2.5,3.1,0.5,3.8,1.4,·,0.678

# Entries of single compounds from above. Screens in order: HNF4A DNA FP	B2AR ag	LANA-H2A inh	ALR H2O2 inh	UCH37 DUB inh	FGF22 binding	E coli growth
# COCc1nc(-c2ccc(-c3ccc(C)cc3)nc2OC)no1 is listed as -14.2	5.8	0.5	7.8	-21.9	·	0.702
# Cc1nc2ccccc2cc1C(=O)NCc1ccco1 is listed as -2.2	-9.9	-3.5	·	3.3	·	0.682
# COC(=O)c1ccccc1S(=O)(=O)N(Cc1cc2cc3c(cc2[nH]c1=O)OCO3)C1CCCCC1 is listed as ·	·	1.7	-2.2	-21.0	·	0.682

# Further entries.
SMILES,HNF4A DNA FP,B2AR ag,LANA-H2A inh,ALR H2O2 inh,UCH37 DUB inh,FGF22 binding,E coli growth
O=C1CCN(CCc2ccccc2)CCN1[C@H](COc1ccccc1)c1ccccc1,-2.5,-5.0,0.1,-21.1,0.3,i,·
CCc1cc(C(=O)Nc2ccc(C)cc2Br)cs1,0.3,-4.2,-2.0,·,1.1,·,0.679
COc1ccccc1NC(=O)COC(=O)c1cnc(C)cn1,-2.4,7.2,-3.0,-11.0,6.0,i,0.713
CCCCC(CC)CNC(=O)CCCCn1c(=O)[nH]c2ccsc2c1=O (centres undefined),-1.0,-11.4,2.9,-6.7,1.0,i,0.705
Cc1ccc(-c2nc(N)sc2CC(=O)OCC(=O)NCCC(C)C)cc1,9.0,-2.2,3.8,2.1,2.3,·,0.728
Cc1[nH]c2ccccc2c1/C=N/Nc1nc2ccccc2[nH]1,-0.7,23.3,1.8,55.1,·,i,·
Cc1cc(C(=O)Nc2ccc(Cl)c(S(=O)(=O)N3CCOCC3)c2)c2ccccc2n1,3.2,-14.8,-6.4,·,0.9,i,0.686
O=c1[nH]c(NCCO)nnc1Cc1ccc(Cl)cc1,-1.8,-1.0,4.4,·,1.4,i,0.696
Cc1ccc(OCC(=O)c2cc(C)n(-c3cc(C)on3)c2C)c([N+](=O)[O-])n1,0.0,-3.5,·,·,1.7,i,0.659
Cn1nnnc1SCC(=O)NC(=O)c1cccc([N+](=O)[O-])c1,3.2,0.7,-2.3,1.8,2.3,i,0.715
Cc1cc(=O)oc2cc(OCC(=O)OCC(=O)NCc3ccc4c(c3)OCO4)ccc12,-3.2,-3.3,-4.5,-0.6,-23.1,·,0.696
O=C(Nc1ccc(N2CCOCC2)c(Cl)c1)c1ncn[nH]1,-2.5,2.9,0.9,31.4,-0.3,·,0.716
CCS(=O)(=O)N1Cc2ccccc2CC1C(=O)Nc1ccc(OC)c(OC)c1 (centres undefined),2.5,2.2,1.8,·,2.1,i,0.671
Cc1ccccc1C(=O)NC1CCN(CC(=O)N2CCCCC2C)CC1 (centres undefined),-2.3,8.1,4.5,-6.2,3.3,i,0.651
O=P(O)(O)C(O)C(F)(F)C(F)(F)C(F)(F)C(F)F (centres undefined),0.1,2.0,2.2,-3.1,1.7,·,0.68
O=C1CCC(C(=O)OC(C(=O)Nc2cc(Cl)cc(Cl)c2)c2ccccc2)=NN1 (centres undefined),3.8,-0.5,11.3,·,0.9,i,0.605
Cc1cc(NS(=O)(=O)c2ccc(NC(=O)c3ccc(F)cc3)cc2)nc(C)n1,-1.6,1.1,-1.5,·,0.4,i,0.677
Cc1nnc(SCc2ccccc2)n1N,-1.5,-8.7,-8.0,-2.4,3.3,·,0.711
COc1ccc(NC(=O)CCCCCn2nnc3ccccc3c2=O)cc1OC,1.0,-19.5,-0.9,-3.2,0.2,i,0.688
COCCNC(=S)Nc1cc(OC)c(OC)cc1C#N,-1.4,-3.2,·,·,2.1,i,0.641
O=C(COC(=O)Cc1ccsc1)NCc1ccccc1,0.4,3.1,-2.0,-2.7,1.6,·,0.672
COCCN(C(=O)CCC(=O)Nc1cc(C)on1)C(C(=O)NC1CCCC1)c1ccc(C(C)C)cc1 (centres undefined),-1.1,-1.9,-0.5,·,-0.3,i,0.704
CN(C)/C=N/c1cc(=O)n(C)c(=O)n1Cc1ccccc1,-1.1,-6.9,4.1,20.4,·,i,·
COc1ccc(S(=O)(=O)Cc2ccc(C(=O)NCc3ccc(C)cc3)o2)cc1,0.1,-1.5,-4.2,-3.3,4.8,i,0.645
O=C(CN1CCN(C(=O)c2cccc(F)c2)CC1)NC1CCCCC1,·,·,1.5,·,2.1,·,0.776
O=S(=O)(N1CCCCC1)N1CCN(c2ccc(F)cc2)CC1,0.1,23.0,-1.2,24.1,1.1,·,0.673
Cc1c(C(=O)N2CCN(c3ccc([N+](=O)[O-])cc3)CC2)oc2ccccc12,-1.7,-2.9,-31.8,-2.2,6.2,i,0.721
CCOC(=O)C1CCCN(Cc2cc(Br)ccc2OC)C1 (centres undefined),5.7,6.9,-2.1,-4.4,2.8,·,0.742
COc1ccc(C(=O)NC(CCSC)C(=O)NCc2nnc3ccccn23)cc1 (centres undefined),0.5,-3.4,·,·,4.0,i,0.675
CCn1c(Cc2ccccc2)nnc1SCC(=O)Nc1ccccc1N1CCOCC1,-2.3,-2.4,3.0,-7.9,5.8,·,0.687
Cc1nc2ccccc2n1C(=O)c1ccc(Cl)cc1[N+](=O)[O-],-1.8,-9.0,-5.0,-21.3,1.1,·,0.609
Cc1cc(Sc2nnc(N)s2)c2ccccc2n1,0.7,1.0,5.5,6.9,5.5,i,0.651
COc1cc(/C=C2\SC(c3ccc(C)cc3)=NC2=O)ccc1O,78.4*,3.9,-3.6,19.6,3.8,i,0.621
Cc1ccc(OCC(O)CN2CCN(c3ccc(C)cc3)CC2)cc1 (centres undefined),-1.8,-0.3,-3.7,14.4,3.6,i,0.638
O=C(COC(=O)c1cccc2ccccc12)NCC1CCCO1 (centres undefined),1.3,5.5,2.3,-2.3,-20.9,i,0.703
Cc1cc(-c2onc(C)c2C(N)=O)no1,-3.8,5.1,-2.5,1.2,3.2,i,0.608
CCn1nc(C)c(/C=N/NC(=O)c2ccoc2C)c1C,-1.6,10.6,-1.2,-0.1,·,·,·
Cc1ccccc1-n1c(SCC(=O)c2c(N)n(C)c(=O)n(C)c2=O)nnc1-c1cccnc1,-1.9,-5.9,-3.3,0.0,2.9,i,0.68
Cc1ccc2c(c1)sc1ncc(NC(=O)c3ccc(F)cc3)c(=O)n12,·,·,-1.7,-6.9,-16.9,·,0.692
COc1ccc(S(=O)(=O)NCC2CCCN(C(=O)c3cccnc3)C2)cc1 (centres undefined),1.6,2.5,1.5,1.8,0.1,i,0.676
O=C(CCNS(=O)(=O)c1cccc(C(F)(F)F)c1)NCc1ccco1,-2.5,3.2,2.8,·,-0.4,i,0.604
C=C(C)c1ccc(C(C)(C)NC(=O)NCc2ccco2)cc1,3.2,-3.5,-0.8,-3.3,4.7,·,0.66
COc1ccc(NC(=O)CCn2cc(C)c3ccccc32)cc1,3.4,3.1,-1.7,-0.6,3.4,·,0.704
CCc1ccc(-n2c(SCC(=O)NC3CCS(=O)(=O)C3)nc3ccccc3c2=O)cc1 (centres undefined),2.4,-9.7,-5.1,-2.6,1.8,i,0.712
COC(=O)c1cc(NC(=O)c2cccc([N+](=O)[O-])c2C)ccc1Cl,0.5,8.0,-3.0,-0.7,-0.2,i,0.711
O=C(CN1C(=O)C(=O)N(C2CCCC2)C1=O)Nc1ccc(F)cc1F,9.0,-3.1,·,·,2.6,i,0.66
Cc1cccc(NC(=O)CSc2nc3nc(C)cc(C)c3c(=O)[nH]2)c1,3.5,-5.6,4.3,43.8,6.3,·,0.676
O=c1[nH][nH]c(-c2ccccc2)c1C=Nc1ccc(Cl)cc1,-0.2,-10.5,5.8,2.2,3.6,·,0.714
COc1ccc(NC(=O)COC(=O)c2c(-c3ccccc3)noc2C)cc1,-1.7,-2.9,-5.8,-1.8,1.9,i,0.617

# The list is partial, so the mix of outcomes need not match the whole.
